Vaccinia mCherry: qHTS for Stage-Specific Inhibitors of Vaccinia Orthopoxvirus: mCherry Reporter Primary qHTS | Vaccinia virus mCherry reporter infection, fluorescence; about a quarter of the inactives have no number | Potency, µM (series often up to 36.5 µM), for inactives: at the highest dose activity change, negative = inhibition, hits mostly inhibitors | hit rate 0.63% among 310,000; active = well fitted inhibition curve with a large enough effect; inconclusive = small, poorly fitted or top-dose-only effect; inactive = no such curve, though single readings can be large or run the other way; tested in A549 cells; also: nearly all actives have a fitted effect of over 35% in size; inactives centre near -10
VACV Venus inh: qHTS for Stage-Specific Inhibitors of Vaccinia Orthopoxvirus: Venus Reporter Primary qHTS; Vaccinia virus Venus reporter expression, fluorescence; Potency, µM (series often up to 36.5 µM), for inactives: at the highest dose activity change, negative = inhibition, actives largely listed as inhibitors; hit rate 0.46% among 330,000; active means well fitted inhibition curve with a large enough effect; inconclusive means small, poorly fitted or top-dose-only effect; inactive means no such curve, though single readings can be large or run the other way; tested in A549 cells; also: nearly all actives have a fitted effect of over 30% in size; inactives centre near -10
* hit, by the source's call; i = inactive; ? = inconclusive; nt = no result given; & = joins results of further samples; [ ] = another dose, or the depositor's remark. % is scaled to controls: 0 for no effect and ±100 for the full control effect; potency is read from the fitted curve at half-maximal effect.

SMILES | Vaccinia mCherry | VACV Venus inh
CC1(c2nc3ccccc3[nH]2)CCC(=O)N1Cc1ccccn1 (stereo unspecified) | 7% | 1%
O=C(CCS(=O)(=O)c1cccc2nonc12)Nc1c(F)cccc1F | -12% | -10%
C[C@H](CO)N1C[C@H](C)[C@@H](CN(C)S(=O)(=O)c2cn(C)cn2)Oc2c(NS(=O)(=O)c3cn(C)cn3)cccc2C1=O | -23% | 0%
COC(=O)c1ccc(Oc2nc(N3CCCCC3)nc(N3CCOCC3)n2)cc1 | i | -4%
O=C(CCN1C(=O)c2ccccc2C1=O)N1CCN(C(=O)c2ccccc2)CC1 | -4% | 3%
COc1ccccc1NC(=O)CCS(=O)(=O)c1ccccc1 | i | -11%
COCCNC(=S)Nc1cc(OC)c(OC)cc1C#N | i | -10%
COc1ccc(S(=O)(=O)Nc2ccc(-c3ccc(N4CCCC4)nn3)cc2)cc1F | -1% | 1%
COc1ccc(OCCNC(=O)CSc2ccc(C(F)(F)F)cc2[N+](=O)[O-])cc1 | i | -17%
Cc1ccc(Cl)cc1N1CCN(C(=O)C2CCCN(Cc3nc(-c4cccc(Cl)c4)oc3C)C2)CC1 (stereo unspecified) | i | -9%
O=P(O)(O)Cc1c(Cl)cccc1Cl | -4% | -4%
CC1(C)CC(=O)C=C(C(=O)N2CCCC(C(=O)c3cc(F)ccc3F)C2)O1 (stereo unspecified) | -25% | -11%
COc1ccc(OCC(CO)N2CCN(c3ccccc3)CC2)cc1 (stereo unspecified) | -9% | 2%
Cc1c(CCOC(=O)c2cc([N+](=O)[O-])cc([N+](=O)[O-])c2)sc[n+]1CC(=O)c1ccc(Br)cc1 | -13% | -18%
Cn1cc(C(c2ccccc2OCC(=O)O)c2cn(C)c3ccccc23)c2ccccc21 | 190%[activator] | 348%[activator]
O=C(CCc1nnc(-c2ccc3c(c2)OCO3)o1)NCCc1ccccc1F | i[7.34 µM] | -5%[7.34 µM]
O=C(Nc1nccs1)C(Br)C(Br)c1ccccc1 (stereo unspecified) | i | -21%
CC(Cc1ccccc1)C(=O)Nc1ccccc1 (stereo unspecified) | i | -12%
O=C(c1cccc2ccccc12)C1CCCN(C(=O)CCc2cnccn2)C1 (stereo unspecified) | i | -11%
Cc1ccc(S(=O)(=O)N2Cc3cc(-c4cccc(F)c4)ccc3-n3nncc3C2)cc1 | i | -14%
CCCCC[C@@H]1C=C(C(=O)O)[C@H](c2ccc(C)cc2)N1S(=O)(=O)c1ccc(C)cc1 | 8% | -12%
CC(C)CC1C(C#N)=C(N)Oc2n[nH]c(-c3ccccc3)c21 (stereo unspecified) | -15% | -7%
Cc1ccc(-c2nn(-c3cccc(F)c3)cc2CNCc2cccnc2)o1 | -4% | -13%
Cc1cc(Cl)ccc1N(CC(=O)NCCSCc1ccco1)S(C)(=O)=O | i | -4%
CCNc1nc(NCC)nc(SCCOC(=O)Nc2ccccc2)n1 | nt | -11%

Part of the list above, in CSV form:
SMILES,Vaccinia mCherry,VACV Venus inh
COc1ccc(OCC(CO)N2CCN(c3ccccc3)CC2)cc1 (stereo unspecified),-9%,2%
COc1ccccc1NC(=O)CCS(=O)(=O)c1ccccc1,i,-11%

The listing continues:
SMILES | Vaccinia mCherry | VACV Venus inh
Cc1cnc(C(=O)OCC(=O)N(C(C)C)C(C)C)cn1 | nt | -13%
Cc1ccc(NC(=O)C2CCCN2S(=O)(=O)c2ccc3c(c2)n(C)c(=O)c(=O)n3C)cc1C (stereo unspecified) | -8%&-16% | -7%&-9%
COc1cccc(OCc2nc3ncc(Br)cc3[nH]2)c1 | -28% | -20%
Cn1c(SCC(=O)c2cc3ccccc3o2)nnc1-c1ccccc1 | -11% | -7%
Cc1ccc(N2CC(C(=O)Nc3ccccc3N3CCCC3)CC2=O)cc1 (stereo unspecified) | ? | -19%
COc1ccc(CC(=O)NCC(=O)N/N=C(/C)c2ccco2)cc1 | -6% | 8%
CCCCCCCn1c(NC(=O)CC)nc2ccccc21 | -13% | -14%
Cc1ccc(S(=O)(=O)NCC(c2ccccc2)N2CCCCC2)cc1 (stereo unspecified) | ? | -8%
O=C(O)c1ccc(Nc2nc(-c3ccccc3)c3ccccc3n2)cc1 | -1% | -1%
COc1ccc(-n2c(=S)[nH]c3cc(C(=O)NCc4ccco4)ccc3c2=O)cc1OC | -13%&8% | -9%&1%
COc1ccccc1-c1oc2ccccc2c1-c1ccc2cc[nH]c2c1 | -27% | ?
CCOC(=O)c1c(C)c(-c2ccccc2)n(CC(=O)Nc2cccc(C)c2C)c1C | 0% | -5%
COc1ccc(C(=O)O)cc1OC | -4%&-15% | -12%&-7%
Cc1ccc(S(=O)(=O)Nc2ccc(O)c(S(=O)(=O)c3ccc(C)cc3)c2)cc1 | -16% | -9%
CCn1cc(C(=O)Nc2ccc(C)cc2[N+](=O)[O-])c(C)n1 | -1% | -15%
O=C(CCc1ccccc1)Nc1ccc(S(=O)(=O)Nc2nccs2)cc1 | i | -13%
CN(C)CCCN(C(=O)COc1ccccc1)c1nc2c(F)cccc2s1 | i | -8%
O=C(NCCCO)C(=O)Nc1c2c(nn1-c1ccc(F)cc1)CSC2 | 0% | -4%
CCOc1ccc(CCNC(=O)COC(=O)c2ccccc2O)cc1OCC | i | -9%
COc1ccc(C)cc1NC(=O)C(Sc1nnc(Nc2cc(C)ccc2OC)s1)c1ccccc1 (stereo unspecified) | ? | -23%
CSc1ncc(Cl)c(C(=O)C(C#N)c2nc3c(C)cc(C)cc3c(=O)[nH]2)n1 (stereo unspecified) | i | -8%
Cc1ccc(-c2nc(CS(=O)CC(=O)NCc3ccc(Cl)cc3)c(C)o2)cc1 (stereo unspecified) | i | -21%
O=S(=O)(c1ccc(Cl)cc1)c1snnc1-c1ccccc1 | ? | ?
Cc1nc(CNC(=O)c2cc(COc3c(F)cccc3F)on2)cs1 | -2% | -8%
CCOc1ccc(S(=O)(=O)N2CCC(C(=O)N3CCCC3)CC2)cc1C | -23% | ?

Part of the list above, as comma-separated lines.
smiles,Vaccinia mCherry,VACV Venus inh
O=C(O)c1ccc(Nc2nc(-c3ccccc3)c3ccccc3n2)cc1,-1%,-1%
COc1ccc(-n2c(=S)[nH]c3cc(C(=O)NCc4ccco4)ccc3c2=O)cc1OC,-13%&8%,-9%&1%
COc1ccccc1-c1oc2ccccc2c1-c1ccc2cc[nH]c2c1,-27%,?
CCOC(=O)c1c(C)c(-c2ccccc2)n(CC(=O)Nc2cccc(C)c2C)c1C,0%,-5%
COc1ccc(C(=O)O)cc1OC,-4%&-15%,-12%&-7%
Cc1ccc(S(=O)(=O)Nc2ccc(O)c(S(=O)(=O)c3ccc(C)cc3)c2)cc1,-16%,-9%
CCn1cc(C(=O)Nc2ccc(C)cc2[N+](=O)[O-])c(C)n1,-1%,-15%
O=C(CCc1ccccc1)Nc1ccc(S(=O)(=O)Nc2nccs2)cc1,i,-13%
CN(C)CCCN(C(=O)COc1ccccc1)c1nc2c(F)cccc2s1,i,-8%
O=C(NCCCO)C(=O)Nc1c2c(nn1-c1ccc(F)cc1)CSC2,0%,-4%
CCOc1ccc(CCNC(=O)COC(=O)c2ccccc2O)cc1OCC,i,-9%
COc1ccc(C)cc1NC(=O)C(Sc1nnc(Nc2cc(C)ccc2OC)s1)c1ccccc1 (stereo unspecified),?,-23%
CSc1ncc(Cl)c(C(=O)C(C#N)c2nc3c(C)cc(C)cc3c(=O)[nH]2)n1 (stereo unspecified),i,-8%
Cc1ccc(-c2nc(CS(=O)CC(=O)NCc3ccc(Cl)cc3)c(C)o2)cc1 (stereo unspecified),i,-21%
O=S(=O)(c1ccc(Cl)cc1)c1snnc1-c1ccccc1,?,?

Additional results follow.
SMILES | Vaccinia mCherry | VACV Venus inh
O=C(NNC1OC(CO)C(O)C(O)C1O)c1cccnc1 (stereo unspecified) | -7% | 1%
N/C(=N\OC(=O)CCCc1ccccc1)c1ccccc1 | i | 0%
O=C(NCc1ccccc1)c1cnc(N2CCCCC2)c2ccccc12 | -9% | -11%
CC(C)Oc1ccc(N2CC(C(=O)Nc3ccccc3F)CC2=O)cc1 (stereo unspecified) | nt | -16%
O=C(c1cccnc1)N1CCN(C(=O)c2cccs2)CC1 | i | -5%
O=C(CN1C(=O)NC2(CCCC2)C1=O)Nc1cc(S(=O)(=O)N2CCCCC2)ccc1Cl | -15% | -8%
COc1nc(OCC#N)nc(N(C)C)n1 | nt | -8%
CCN(CC)C(=O)C1CC(=O)N(c2ccc(F)c(Cl)c2)C1 (stereo unspecified) | nt | -8%
CC(C)(C)c1ccc(S(=O)(=O)Nc2noc3ccccc23)cc1 | -4% | -14%
O=C(NC1CC1)C1=C[C@H](c2ccc3c(c2)OCO3)C[C@H](OCc2ccc(CO)cc2)O1 | i | -10%
Cc1cc(SCC(=O)c2cccs2)nc2c(C)cccc12 | -11% | -10%
CCN(CC)S(=O)(=O)c1ccc(N/N=C/c2cc(OC)c(OC)cc2OC)nc1 | -5% | -12%
CCC(C)(C)NC(=O)c1cc([N+](=O)[O-])ccc1N1CCCCC1 | i | -15%
Cc1ccc(NS(=O)(=O)c2cn(C)c(=O)n(C)c2=O)cc1C | -8% | -13%
CCCCn1nc(C(=O)NCC(=O)Nc2c(C)cccc2C)c2ccccc2c1=O | 0% | -4%
COc1cccc(C(N)c2nc(-c3csc4ccccc34)cs2)c1 (stereo unspecified) | 6% | -13%
CCCC(=O)Nc1ccc(C(=O)COC(=O)c2c(C)noc2C)cc1 | -2% | -13%
O=C(CSc1n[nH]c(=O)n1-c1ccccc1)Nc1ccccc1 | i | -18%
CCCCn1c(N)c(N(CC(C)C)C(=O)c2cc(S(=O)(=O)N3CCOCC3)ccc2Cl)c(=O)[nH]c1=O | -12% | 0%
Cc1cccc(C)c1NC(=S)N(CCN(C)C)C(C)c1cccnc1 (stereo unspecified) | -10% | -23%
O=C1CCCN1CCC(=O)N1CCCC(Nc2ccc(F)c(F)c2)C1 (stereo unspecified) | -6% | -5%
Cc1ccc(Nc2c(O)nc[nH]c2=O)cc1 | -23% | 7%
CCOc1ccc(NC(=O)c2cc(C)nc3c2c(C)nn3-c2ccc(C)cc2)cc1 | -9% | -7%
Cc1ccc(C(=Cc2ccc([N+](=O)[O-])cc2)C(=O)O)cc1 | -11% | -5%
Cc1nc2cc(NC(=O)c3cccc(S(C)(=O)=O)c3)ccc2o1 | -17% | -11%
Further compounds
SMILES | Vaccinia mCherry | VACV Venus inh
CCOC(=O)N1CCc2c(sc3c2C(=O)NC(c2ccc(C(=O)OC)cc2)N3)C1 (stereo unspecified) | -2% | 2%
CC12CCC(C(=O)N(CC(=O)O)C1=O)C2(C)C (stereo unspecified) | -5% | -5%
Cc1ccc(C)c(CNC(=O)CCn2cccn2)c1 | -11% | -4%
CCOC(=O)C1=C(CS(=O)(=O)c2ccccc2)NC(=O)NC1c1ccc(O)c(OC)c1 (stereo unspecified) | i | -11%
COc1ccccc1/C=C(/CC(=O)NCc1ccc(F)cc1)c1nc2ccccc2s1 | -29% | -17%
CCN(CC)c1ccc(CN2CCCCCC2)cc1 | -10% | -4%
O=C(NCCS(=O)(=O)c1ccc(Br)cc1)c1ccc(Cl)cc1Cl | i | -25%
CS(=O)(=O)Nc1ccc(C(=O)NCCc2ccccc2)cc1 | nt | ?
COc1ccccc1OCC(=O)NNC(=O)c1ccoc1C | ? | ?
C[C@@H]1CN([C@@H](C)CO)C(=O)CCCn2cc(nn2)CO[C@H]1CN(C)S(=O)(=O)c1cccc(C#N)c1 | i | -2%
Cc1ccc(C(=O)NN2C(=O)CSC2=S)cc1 | 21% | 44%[activator]
CC(NC(=O)C(=O)NN=C1CCCC1)c1ccccc1 (stereo unspecified) | -14% | -3%
COC(=O)C12CCc3cc(OC)ccc3C1=CC(=O)C2 (stereo unspecified) | -18% | -2%
Cc1ccc2cc(NC(=O)c3ccc(C(C)(C)C)cc3)ccc2n1 | -4% | -28%
COc1ccc(CN2C[C@H](Sc3nc4ccccc4[nH]3)C[C@H]2C(=O)N2CCCN(C)CC2)cc1C | 2% | 14%
Nc1cc2sc(-c3ccc(C(=O)O)cc3)nc2cc1Cl | -4% | 2%
Cc1ccc(S(=O)(=O)N(C(=O)c2ccncc2)c2ccc(OC(=O)c3ccncc3)c3ccccc23)cc1 | -14% | -7%
Cc1ccc(OCC(=O)N/N=C2/SCC(=O)N2Cc2ccco2)cc1 | -6% | -2%
O=C(Nc1ccc2c(c1)OCO2)c1cnn2cccnc12 | ? | -12%
CCc1ccc(NC(=O)C2CCCN2S(=O)(=O)c2ccc3c(c2)C(C)(C)C(=O)N3C)cc1 (stereo unspecified) | -21% | -15%
O=C(NCC(c1ccco1)N1CCCC1)c1cccc(S(=O)(=O)Nc2ccc(Br)cc2)c1 (stereo unspecified) | i | -12%
Cn1nnc(NC(=O)c2ccc3ccccc3c2)n1 | nt | -20%
COCC(=O)Nc1ccccc1Br | i | -5%
CC(C)NC(=O)c1cc(C2CCCCN2C(=O)c2cc(C(C)(C)C)nn2C)on1 (stereo unspecified) | 9% | 3%
CC(Sc1nnc(C(F)(F)F)n1C)C(=O)NC(N)=O (stereo unspecified) | -11% | -8%
O=C(NN1C(=O)c2ccccc2NC1c1ccccn1)c1ccccc1 (stereo unspecified) | -7% | -13%
CCOc1ccccc1NC(=O)CN1C(=O)COc2ccc(Cl)cc21 | -17% | -10%
CCN1C(=O)[C@H]2[C@@H](c3ccc(OC)cc3)N[C@]3(CCCN(Cc4ccc(OC)cc4)C3=O)[C@H]2C1=O | -11% | -14%
COc1ccc(-c2nc3ccccn3c2NC2CCCCC2)cc1SC1CCCCC1 | ? | ?
